# NPYLR7 ag: activates Aedes aegypti NPYLR7 receptor; HEK293T NPYLR7/Galpha15, GCaMP6s calcium fluorescence; activation, % at 10 µM; 0.15% of 270,000 active; AID 1259423; in the data active means activation above about 40%;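 further: 0% = vehicle and 100% = reference agonist at the receptor; some compounds past the cut are filed as inactive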
# NPYLR7 ag max-min: also measured in NPYLR7 ag; calls as there; activation, %; measured here: Max-Min RFU normalised activation; some inactives read as strong as hits;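 span of the calcium signal over five minutes; 0% = vehicle and 100% = native peptide agonist; compound fluorescence can raise it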
# An asterisk follows results filed as active; & = joins results of further samples. These rows are one share of the data; count on the stated rates, not on these rows.
SMILES,NPYLR7 ag,NPYLR7 ag max-min
CC1CC(C)CN(C(=O)C(C)N2CCN(S(=O)(=O)c3ccc(F)c(F)c3)CC2)C1 (configuration not stated),1,-1
O=C(CSc1nccc2c(OCc3ccc(F)cc3)cccc12)N1CCOCC1,0,-1
OCCOc1cccc(CN2CCCC2c2nc(-c3ccccc3)no2)c1 (configuration not stated),2,1
Cc1nn(C)c(C)c1CN(c1nc2nonc2nc1NCc1cccs1)C1CC1,11,0
Nc1c(C(=O)Nc2ccccc2F)sc2nc3c(cc12)C(=O)CCC3,1,-3
CN(Cc1ccc(F)cc1F)C(=O)CN(C)S(=O)(=O)c1ccc(C#N)cc1,9,7
COc1ccc(CC(=O)O)cc1S(=O)(=O)N(C)c1cccc(C)c1C,11,10
Cc1ccc(-n2nnc(C(=O)OCc3ccccc3C)c2C)cc1F,0,-4
CCCC(=O)Nc1ccc(C(=O)COc2ccc(Cl)cc2Cl)cc1,8,4
CN1CCCN(c2nc(C(F)(F)F)nc3nc[nH]c23)CC1,6,6
CCCNC(=O)Cn1nc(C2CC2)c2cnn(-c3ccc(F)cc3)c2c1=O,8,5
Cn1ccn2ncc(C(=O)N3C[C@H]4CC=CC[C@H]4C3)c12,12,6
C=CCNc1ccccc1C(=O)N1CCCC2(CCN(C)C2)C1 (configuration not stated),3,0
COc1ccc(F)cc1CN1CCN(c2ncnc3sc4c(c23)CCCC4)CC1,14,13
Cc1ccc2nc(SCC(=O)NCc3ccc(F)cc3)nc(=O)n2c1,2,0
Cc1cc2nc3nc(N)sc3nc2cc1C,-2,16
Cc1ccc(C)c(CSc2nc3cc(S(=O)(=O)N4CCCC4)ccc3n2C(C)C)c1,14,14
O=S(=O)(c1ccccc1)N1CCN(Cc2ccc3c(c2)OCO3)CC1,-18,-17
COc1cc(-c2csc(=NCc3ccccc3)n2N=C2CCCC2)cc(OC)c1OC,-10,-12
CCc1nnc(NC(=O)CN2C(=O)C(=Cc3ccc(OC)c(OC)c3)SC2=S)s1,-4,-9
OCCC1CN(CC2=Cc3cc(Cl)ccc3OC2)CCN1Cc1ccsc1 (configuration not stated),4,0
Cc1nc(-c2ccc(Cl)cc2)nc(N2CCN(C(=O)c3cccc(Br)c3)CC2)c1C,14,16
COc1ccc(-n2c(SCC(C)=O)nc3sc(C)c(C)c3c2=O)cc1,-4,-9
CC(=O)N1CCC(C(=O)N2CCCC(CCc3ccccc3C)C2)CC1 (configuration not stated),3,-2
CCN(C/C=C/c1ccccc1)C(=O)c1cc2cccnc2nc1C,2,-1
Cc1ccc(CN2CCN(N=Cc3cc(Br)ccc3O)CC2)c(C)c1,-11,-9
C=CCNc1nc(C2(C)CC3(CC(COCC(C)C)OC3=O)C(=O)O2)cs1 (configuration not stated),1,2
Cc1ccc(-c2nc3ccccc3o2)cc1NC(=O)c1cccc(Cl)c1,2,-1
CCOC(=O)C1CCN(C(=O)c2ccc(CSc3nc(C)cc(N4CCCC4)n3)cc2)CC1,-10,5
Fc1ccc(CNc2nc(Cc3ccc(Cl)cc3)ns2)cc1,10,14

# An excerpt of these results, with two lines to a compound:
# Below each SMILES – NPYLR7 ag, NPYLR7 ag max-min
CCCNC(=O)Cn1nc(C2CC2)c2cnn(-c3ccc(F)cc3)c2c1=O
    8, 5
Cn1ccn2ncc(C(=O)N3C[C@H]4CC=CC[C@H]4C3)c12
    12, 6
C=CCNc1ccccc1C(=O)N1CCCC2(CCN(C)C2)C1 (configuration not stated)
    3, 0
COc1ccc(F)cc1CN1CCN(c2ncnc3sc4c(c23)CCCC4)CC1
    14, 13
Cc1ccc2nc(SCC(=O)NCc3ccc(F)cc3)nc(=O)n2c1
    2, 0
Cc1cc2nc3nc(N)sc3nc2cc1C
    -2, 16
Cc1ccc(C)c(CSc2nc3cc(S(=O)(=O)N4CCCC4)ccc3n2C(C)C)c1
    14, 14
O=S(=O)(c1ccccc1)N1CCN(Cc2ccc3c(c2)OCO3)CC1
    -18, -17
COc1cc(-c2csc(=NCc3ccccc3)n2N=C2CCCC2)cc(OC)c1OC
    -10, -12
CCc1nnc(NC(=O)CN2C(=O)C(=Cc3ccc(OC)c(OC)c3)SC2=S)s1
    -4, -9
OCCC1CN(CC2=Cc3cc(Cl)ccc3OC2)CCN1Cc1ccsc1 (configuration not stated)
    4, 0
Cc1nc(-c2ccc(Cl)cc2)nc(N2CCN(C(=O)c3cccc(Br)c3)CC2)c1C
    14, 16
COc1ccc(-n2c(SCC(C)=O)nc3sc(C)c(C)c3c2=O)cc1
    -4, -9
CC(=O)N1CCC(C(=O)N2CCCC(CCc3ccccc3C)C2)CC1 (configuration not stated)
    3, -2
CCN(C/C=C/c1ccccc1)C(=O)c1cc2cccnc2nc1C
    2, -1
Cc1ccc(CN2CCN(N=Cc3cc(Br)ccc3O)CC2)c(C)c1
    -11, -9
C=CCNc1nc(C2(C)CC3(CC(COCC(C)C)OC3=O)C(=O)O2)cs1 (configuration not stated)
    1, 2
Cc1ccc(-c2nc3ccccc3o2)cc1NC(=O)c1cccc(Cl)c1
    2, -1
CCOC(=O)C1CCN(C(=O)c2ccc(CSc3nc(C)cc(N4CCCC4)n3)cc2)CC1
    -10, 5
Fc1ccc(CNc2nc(Cc3ccc(Cl)cc3)ns2)cc1
    10, 14

# (next part)
SMILES,NPYLR7 ag,NPYLR7 ag max-min
Cc1ccc(-c2cc(C(=O)Nc3ncccc3C)c3ccccc3n2)cc1,1,5
COc1ccc(S(=O)(=O)N(CCN(C)C)Cc2csc(COc3cccc(C)c3)n2)cc1,-11,-9
Cc1cc(C)c(CN2CC[C@H](CO)[C@H](O)C2)c(-n2cccn2)c1,7,4
O=C(CCCC(=O)N1CCC2(CC1)NCCNC2=O)c1ccccc1,21,7
CCCn1c(=O)c(C(=O)NCC2CCCO2)nn(-c2ccc(OC)c(OC)c2)c1=O (configuration not stated),6,17
COc1cccc2sc(N(CC3CCCO3)C(=O)c3cc(C)nn3C)nc12 (configuration not stated),-7,-7
COc1cccc(CNC(=O)c2ccc(C(C)N3CCCCC3)o2)c1OC (configuration not stated),-5,-4
CC(/C=C1\N=C(c2ccccc2F)OC1=O)=C\c1ccccc1,-15,-16
CCc1c(C(=O)NCC(C)C)c(CC(C)C)nn1-c1ccccc1,18,27
CCOC(=O)Cc1nn[nH]n1,10,8
Cc1ccc(C(=O)Nc2nc3c(s2)CCC3C(=O)NCCn2nc(-c3ccco3)ccc2=O)cc1 (configuration not stated),1,0
O=C(C(O)c1ccc(F)cc1)N1CC(c2ccncc2)C1 (configuration not stated),5,3
CCOC(=O)c1ccc(-c2cc(C)no2)[nH]1,-7,-10
CC(=O)N(/C=C/C(=O)C(F)(F)F)c1ccnn1C1CCCCC1,11,5
Cc1ccccc1Oc1ncccc1C(N)=O,5,3
COCC(=O)NC1CCN(c2ccccc2C(=O)NCc2ccc(-c3ccccc3)cc2)CC1,1,4
CCc1nc2n(n1)C(=O)C(C(c1cccc(C)c1)N1CCN(CC)CC1)S2 (configuration not stated),-4,-11
COCCCNc1nc2nonc2nc1N1CCN2CCCC2C1 (configuration not stated),10,3
CCNS(=O)(=O)c1ccc(NCC(O)c2ccc(F)cc2)nc1 (configuration not stated),-12,-13
O=c1onc(-c2ncccn2)n1Cc1ccc(Cl)s1,0,-2
COc1ccccc1N(C(C)=O)c1nc(CSC2=NCCS2)cs1,4,0
Cc1ccccc1C(=O)Nc1c2c(nn1-c1ccccc1)CSC2,0,-1
CCOC(=O)c1nc2ccccc2nc1N1CCCN(S(=O)(=O)c2ccccc2F)CC1,6,2
O=C(Nc1ccccc1)c1cc2n(n1)CCCN(C(=O)c1csnn1)C2,-5,-3
CC1(c2ccccc2)CN(C(=O)c2ccn[nH]2)CCO1 (configuration not stated),-25,-27
O=C(Nc1cccc(Cl)c1N1CCOCC1)c1cccc2cn[nH]c12,7,6
Cc1cccc(CC(=O)NC(C)CN2CCN(C)CC2)c1 (configuration not stated),4&15,5&6
CCOC(=O)Cn1c(Cl)c(/C=N\NC(=O)Cc2ccc(O)cc2)sc1=O,-8,-14
CCOc1ccc(CN(Cc2cccc(C(F)(F)F)c2)Cc2nc(C(=O)NCCc3ccccn3)co2)cc1,28,27
CCc1nc(N)c(C#N)c(-c2ccco2)c1C,1,9

# Part of the list above, field by field.
> CCOC(=O)Cn1c(Cl)c(/C=N\NC(=O)Cc2ccc(O)cc2)sc1=O
  NPYLR7 ag: -8
  NPYLR7 ag max-min: -14
> CCOc1ccc(CN(Cc2cccc(C(F)(F)F)c2)Cc2nc(C(=O)NCCc3ccccn3)co2)cc1
  NPYLR7 ag: 28
  NPYLR7 ag max-min: 27

# More records.
SMILES,NPYLR7 ag,NPYLR7 ag max-min
CC1(Cc2ccc(OC(F)(F)F)cc2)C(=O)Nc2cc(-c3ccc(F)cc3F)ccc21 (configuration not stated),1,1
CN(Cc1ccc2nccnc2c1)C(=O)c1cc(COc2ccc(F)cc2F)on1,3,0
FC(F)(F)c1[nH]nc2ccncc12,2,-1
CCc1nc2c(OCCOc3ccc(F)cc3)cccn2c1N(C)C(=O)CC(C)C,4,7
COc1ccc(CCC(=O)Nn2cnc3c(cnn3C(C)(C)C)c2=O)cc1,6,5
COCCCN(CC(=O)N(CCc1ccc(OC)c(OC)c1)Cc1ccco1)C(=O)c1ccc(-c2ccccc2)cc1,-1,-2
CCCCCCNC(=O)CCCCSc1nnc(Cc2ccccc2)n1-c1ccccc1,6,14
COCC(=O)N1CCCC(C(=O)NCc2cnn(-c3ccccc3C)c2)C1 (configuration not stated),9,7
CO[C@H]1CN(C(=O)c2cc(C)nn2C)[C@H]2Cc3c(oc4ccccc34)[C@@H]1C2,15,23
CCc1nc(C)sc1CNC(=O)c1nnc2nc(C)cc(C)n12,2,-2
Fc1ccccc1Nc1nc2ccc(Cl)cc2n2cnnc12,12,8
CCCCOc1ccc(C(=O)Nc2c(-c3ccc(C)cc3)nc3ccc(C)cn23)cc1,-6,1
Cc1noc(-c2cccs2)c1C(=O)NCCSCc1ccccc1,30,13
COc1ccc(Br)c(-c2nc(Cc3cccs3)no2)c1,-1,-1
O=C(CSC1=NS(=O)(=O)c2ccccc2N1)OCc1ccccc1,5,3
Cc1c(C(=O)NCc2ccc(F)cc2)sc(=O)n1Cc1ccc(F)cc1,13,4
CC1CCCCN1C(=O)CCNC(=O)c1cccnc1 (configuration not stated),-3,-6
O=C1/C(=C/c2csnn2)COc2c1ccc(Cl)c2Cl,-2,-3
COC(=O)c1ccsc1N1C(=O)CC(Sc2ncccc2C(=O)O)C1=O (configuration not stated),5,3
O=C(NC1CCN(c2ccccc2C(=O)NCc2cccnc2)CC1)c1ccccc1F,14,17
COCCN(CC(=O)N(CCc1c[nH]c2ccccc12)Cc1ccccc1OC)C(=O)Nc1ccc(C)c(Cl)c1,18,13
CS(=O)(=O)CC(=O)NCCN1CCCC(c2ccccc2)C1 (configuration not stated),8,0
CNC(=O)[C@H]1C[C@]2(CCCCN(CCOC)C2=O)N(C(=O)c2ccc(C)cc2)[C@H]1c1ccco1,-2,-2
COc1ccc(C[C@H](N)C(=O)N[C@H]2[C@@H](O)[C@H](n3cnc4c(N(C)C)ncnc43)O[C@@H]2CO)cc1,-4,-2
Cc1nc(C)c(C(=O)NCc2cccnc2N(C)Cc2ccccc2)s1,16,4
CCCNc1ccc(C(=O)NC)cn1,11,9
Cn1c(C2CCC2)nc2cc(C(=O)NCc3nc4c(s3)CCCC4)cc(NC(=O)C3CCCO3)c21 (configuration not stated),17,7
Cc1cc(C)n2nc(C(=O)NCCS(=O)c3ccccc3)nc2n1 (configuration not stated),1,-2
CSc1ncccc1C(=O)N1CCC(C(Cc2ccccc2)N(C)C(=O)c2ccsc2)CC1 (configuration not stated),2,-2
CC(C)n1nccc1NC(=O)CSc1nnc(NC(C)(C)C)s1,6,2
O=C(c1ccc(-c2ccn[nH]2)nc1)N1CCCN(c2ncccn2)CC1,-2,-8
O=C1NC2(CCN(C(=O)c3cccs3)CC2)Nc2cccc(Cl)c21,1,4
Cc1cc(=O)c2ccccc2n1CC(N)=O,9,11
Cc1c(C(=O)N(C)Cc2ccc(F)cc2)sc(=O)n1Cc1ccc(F)cc1,-2,-3
CC(=O)Nc1ccc(Cl)c(C(=O)NCC(C)Oc2cccnc2)c1 (configuration not stated),-8,-10
Cc1ccc(S(=O)(=O)Nc2cccc(-c3ccc(S(C)(=O)=O)nn3)c2)s1,7,2
CC(C)n1cnnc1CCNC(=O)c1cc2ccccc2n1C,2,3
CC1CCC(NC(=O)COC(=O)c2nccnc2C(=O)N2CCOCC2)CC1 (configuration not stated),0,-3
COc1ccc(CCN2CC(=O)N(c3ccccc3)C3CS(=O)(=O)CC32)cc1 (configuration not stated),5,4
CC1CCN(C(=O)C(C)Sc2nnc(-c3ccc(F)cc3)o2)CC1 (configuration not stated),1,-3
CCN(Cc1ccccc1)Cc1nc(-c2cccc(OC)c2OC)oc1C,1,-4
Cc1cccc(C)c1Nc1c(Cc2ccccc2)nc2c(OCc3ccccc3)cccn12,20,31
O=C1NC2(CCCCCC2)C(=O)N1CN1CCN(c2ncccn2)CC1,-1,-1
Cc1ccc(-c2n[nH]c(=S)n2CC(=O)NCC(c2ccco2)N(C)C)cc1 (configuration not stated),-2,-3
COc1ccccc1CNC(=O)CNCc1nc2c(C)cccc2o1,25,9
O=C(NC(c1ccccc1)c1ccc2ccccc2n1)C1CCN(CCOc2ccc(Cl)cc2Cl)CC1 (configuration not stated),34,20
COc1cc(S(=O)(=O)N2CC(C)CC(C)C2)ccc1I (configuration not stated),-6,301
c1ccc(Cc2nc([C@@H]3C[C@H]3c3ccccc3)n[nH]2)cc1,4,2
Cc1csc(=NN=C2CCCCC2)n1Cc1ccco1,8,7
CC(=O)c1ccc(NC(=O)C(C)Oc2ccc(Cl)cc2C(N)=O)cc1 (configuration not stated),-3,-3
CS(=O)(=O)c1ccc(Cl)c(NC(=O)c2ccc(F)c(F)c2)c1,2,0
O=S(=O)(c1ccc2c(c1)nc(SCc1c(F)ccc(F)c1F)n2CC1CCCO1)N1CCCC1 (configuration not stated),3,-2

# Compound activity (PubChem)
